High-throughput results deposited in PubChem by Broad Institute.
YB-1 expression: YB-1 expression inhibition; U2OS, qRT-PCR YB-1 vs CDIP delta delta Cp, 16 h; active compounds read high; zero = DMSO, each unit about twofold; delta delta Cp (YB-1 minus CDIP) (test concentration not listed); 30,000 tested, 0.37% active; AID 434959;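 active = delta delta Cp rounded down to an integer at or above 3, about 3 SD of DMSO wells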;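 also: higher means less YB-1 transcript or more CDIP transcript relative to DMSO; stock transfer was 100 nL into about 100 µL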
MITF inh: MITF inhibition. TRPM1 promoter luciferase, luminescence, 24 h. 37,000 tested, 0.28% active. AID 2240. inhibition, % (concentration not given with the values);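 active = most replicates at 85% or more, or half of them and the mean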;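 also: human melanocyte line stably carrying TRPM1 promoter luciferase reporter; 0% = vehicle wells and 100% = a positive control; the first replicate is given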
Shh pathway inh: Sonic Hedgehog pathway inhibition | Shh-LIGHT2 Gli-luciferase reporter, 30 h | inhibition, % (test concentration not listed) | 22,000 tested, 2.1% active | AID 2313;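 active = replicate mean of 65% or more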;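 also: pathway switched on by Shh-conditioned medium diluted 1 in 25 in low serum; 100 nL library stock added to about 40 µL; 0% = median of neutral wells and 100% = positive control level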
PD-1 reverse act: activators reversing PD-1 mediated T-cell inhibition; activation, % (concentration not given with the values); AID 2316; 29,000 tested, under 10 active; primary human CD4 T cells, PD-L1 beads, CellTiter-Glo 96 h;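 active = replicate mean of 50% or more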;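 also: 0% = median vehicle wells and 100% = positive control; 100 nL library stock added to about 50 µL; numbers are from one replicate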
* hit, by the source's call; / = no result given.

SMILES	YB-1 expression	MITF inh	Shh pathway inh	PD-1 reverse act
CCC(C)[C@H](NC(=O)c1ccco1)C(=O)O (stereo partly drawn)	-0.517	-17.4	/	1.1
Cc1ccc(N(CC(=O)Nc2ccccc2F)S(C)(=O)=O)cc1Cl	/	-10.0	/	0.1
COc1cccc(C(=O)COc2cccc(NC(=O)c3ccc([N+](=O)[O-])cc3)c2)c1	/	48.6	/	-0.8
Cc1cc(C)nc(SCC(=O)Nc2ccc(S(=O)(=O)NC(C)(C)C)cc2)n1	/	53.4	/	0.7
CCc1c(O)cc(OC)c2c1O[C@H](C)CC2=O	-0.44	14.7	-26.1	0.6
Cc1cccc(Cn2c(NCC(C)O)nc3c2c(=O)n(C)c(=O)n3C)c1 (stereo not drawn)	/	45.0	/	1.4
C[C@H](CO)N1C[C@H](C)[C@H](CN(C)C(=O)Nc2ccc(C(F)(F)F)cc2)Oc2ccc(NC(=O)Nc3ccccc3)cc2C1=O	-0.249	43.0	-51.4	-2.8
CNC[C@@H]1Oc2c(NC(=O)C3CCOCC3)cccc2C(=O)N([C@H](C)CO)C[C@H]1C	-0.183	-8.3	-32.9	1.2
C[C@@H]1CN([C@H](C)CO)C(=O)Cc2cc(NC(=O)Cc3cn(C)c4ccccc34)ccc2O[C@@H]1CN(C)Cc1ccncc1	-0.363	12.0	-15.4	-4.0
CC(C(=O)Nc1cc(C(F)(F)F)ccc1Cl)n1cc([N+](=O)[O-])cn1 (stereo not drawn)	/	-0.9	/	-0.9
Cc1ccc(N2CC(C(=O)Nc3ccc(S(=O)(=O)NCC4CCCO4)cc3)CC2=O)cc1 (stereo not drawn)	/	9.6	/	0.7
C[C@@H]1CCCCO[C@H](CN(C)S(C)(=O)=O)[C@@H](C)CN([C@H](C)CO)C(=O)c2cc(NC(=O)C3CCCCC3)ccc2O1	0.224	-12.3	-13.3	0.3
CC1(C)OC(=O)C(=Cc2ccc[nH]2)C(=O)O1	-0.384	-2.4	-14.9	3.7
CC(C)(C)C(=O)OCOC(=O)[C@@H]1N2C(=O)[C@@H](N=CN3CCCCCC3)[C@H]2SC1(C)C	-0.189	-4.4	-4.3	/
Cc1noc(C)c1NC(=O)Nc1ccc2c(c1)C(=O)N([C@H](C)CO)C[C@@H](C)[C@@H](CN(C)C(=O)NC1CCCCC1)O2	-0.0068	-0.7	-51.7	/
C[C@@H]1CN([C@H](C)CO)C(=O)Cc2cc(NC(=O)CCC(F)(F)F)ccc2O[C@H]1CN(C)S(=O)(=O)c1cccs1	0.215	-4.9	9.2	0.9
C[C@@H]1CN([C@H](C)CO)C(=O)c2cccc(NC(=O)Nc3ccccc3)c2O[C@@H]1CN(C)Cc1ccc(Cl)c(Cl)c1	-0.169	11.6	25.4	-3.5
C[C@H]1CN([C@@H](C)CO)C(=O)Cc2cc(NS(=O)(=O)c3ccc(F)cc3)ccc2O[C@@H]1CN(C)Cc1ccccc1	0.0167	-5.9	21.3	1.9
Cc1ccc(S(=O)(=O)Nc2ccc3c(c2)C(=O)N([C@H](C)CO)C[C@@H](C)[C@@H](CN(C)C(=O)Nc2ccc(C(F)(F)F)cc2)O3)cc1	0.172	-2.0	/	-2.9
COC(=O)c1sc(SCCOC(=O)c2ccccc2Cl)c2c1CC(C)(C)CC2=O	0.085	4.0	7.5	0.6
COc1ccc(NC(=O)Nc2cccc3c2O[C@@H](CN(C)Cc2ccccc2)[C@@H](C)CN([C@H](C)CO)C3=O)cc1	-0.577	-3.7	-52.6	1.7
CC1=CC=C(C=O)C(C)(C)C1OC(=O)/C=C(\C)CO (stereo not drawn)	-0.424	6.7	0.1	-0.4
C[C@@H]1CN([C@@H](C)CO)C(=O)c2cc(NC(=O)c3ccncc3)ccc2O[C@@H]1CN(C)C(=O)Nc1cccc2ccccc12	-0.187	8.5	/	/
Oc1ccc(Br)cc1C1Nc2ccccc2S1 (stereo not drawn)	0.612	-7.5	-14.4	-2.6
CSCC[C@H](NC(=O)[C@H](Cc1ccccc1)NC[C@@H](NC[C@@H](N)CS)C(C)C)C(=O)O	-0.33	6.9	7.3	/
(cont.)
SMILES	YB-1 expression	MITF inh	Shh pathway inh	PD-1 reverse act
C[C@@H]1CN([C@H](C)CO)C(=O)c2cccc(N(C)C)c2O[C@@H]1CN(C)Cc1ccc(C(=O)Nc2ccccc2N)cc1	-0.112	4.7	/	-0.3
C[C@@H]1O[C@@H](O[C@@H]2[C@@H](O)[C@H](C)O[C@@H](OC[C@H]3O[C@@H](Oc4c(-c5ccc(O)cc5)oc5cc(O)cc(O)c5c4=O)[C@H](O)[C@@H](O)[C@H]3O)[C@@H]2O)[C@H](O)[C@H](O)[C@H]1O	-0.332	0.4	-8.9	1.1
COC(=O)c1c(C)cc2c(c(C)c1=O)OC1(C2)C(C)CCC2C(C)(C)OC(=O)C=CC21C (stereo not drawn)	-0.389	43.9	-51.1	-9.8
Cc1ccc(S(=O)(=O)Nc2ccc3c(c2)CC(=O)N([C@H](C)CO)C[C@H](C)[C@H](CN(C)C(=O)NC(C)C)O3)cc1	0.00366	7.8	1.2	/
O=C1CCC(O)c2cccc(O)c21 (stereo not drawn)	-0.293	-5.8	-6.4	1.1
C[C@@H]1CN([C@H](C)CO)C(=O)c2cccc(NC(=O)c3nc4ccccc4s3)c2O[C@H]1CN(C)S(=O)(=O)c1cccs1	-0.448	-5.3	26.4	/
COc1ccc(CN(C)C[C@@H]2OCCCC[C@@H](C)Oc3ccc(NC(=O)Nc4ccc(F)cc4)cc3C(=O)N([C@H](C)CO)C[C@@H]2C)cc1	0.35	-28.6	23.5	/
C[C@H]1CN([C@@H](C)CO)C(=O)Cc2cc(NC(=O)CCN3CCOCC3)ccc2O[C@@H]1CN(C)Cc1ccc(Oc2ccccc2)cc1	0.0359	-9.3	22.4	0.1
CCN(CC)CCc1nc(-c2ccccc2)no1	1.17	-2.9	1.0	/
COc1cc(OC)c(C2=NOC(C(=O)Nc3c(C)nn(Cc4ccc(F)cc4)c3C)C2)cc1Cl (stereo not drawn)	/	-8.8	/	-3.4
CC(=O)Nc1ccc(S(=O)(=O)NC2=NCN(CCOC(=O)c3ccccc3)CN2)cc1	0.124	-9.7	3.2	0.3
C[C@@H]1CN([C@@H](C)CO)C(=O)c2cc(NC(=O)CCC(F)(F)F)ccc2O[C@H]1CN(C)Cc1ccc2c(c1)OCO2	0.276	7.9	/	0.1
C[C@@H]1CN([C@@H](C)CO)C(=O)Cc2cc(NC(=O)c3ccncc3)ccc2O[C@@H]1CN(C)C	0.152	-9.7	-37.0	-0.1
COc1ccc(S(=O)(=O)Nc2ccc3c(c2)C(=O)N([C@@H](C)CO)C[C@H](C)[C@H](CN(C)Cc2ccc(C(=O)O)cc2)O3)cc1	-0.552	8.9	-6.9	1.1
C[C@H]1CN([C@@H](C)CO)C(=O)c2cccc(NS(=O)(=O)c3ccccc3)c2O[C@@H]1CN(C)S(=O)(=O)c1cn(C)cn1	-0.0674	-2.6	20.2	4.4
C[C@@H]1CN([C@@H](C)CO)C(=O)c2cc(NC(=O)Cc3cn(C)c4ccccc34)ccc2O[C@@H]1CN(C)CC1CCCCC1	0.502	8.0	/	/
C[C@@H]1CCCCO[C@@H](CN(C)S(=O)(=O)c2ccccc2)[C@@H](C)CN([C@H](C)CO)C(=O)c2cc(NC(=O)CCC(F)(F)F)ccc2O1	0.308	-22.8	-3.0	-1.3
Cc1nnc(SCC(=O)Nc2ccc(C)c([N+](=O)[O-])c2)s1	/	-3.0	/	-0.2
C[C@@H]1CN([C@@H](C)CO)C(=O)c2cc(NC(=O)CCCCCC(=O)Nc3ccccc3N)ccc2O[C@@H]1CN(C)Cc1ccc(-c2ccccc2)cc1	-0.125	-10.5	/	1.7
COc1cc(OC)c2nc(C)c3c(c2c1)SCC3	-0.398	-4.2	-9.1	-1.2
CC(=O)c1cccc(N(CC(=O)N2CCOCC2)S(C)(=O)=O)c1	/	-0.6	/	0.6
C[C@H]1CN([C@@H](C)CO)C(=O)c2cc(N(C)C)ccc2O[C@@H]1CN(C)C(=O)NC1CCCCC1	0.0177	-7.9	-5.3	1.3
C[C@@H]1CN([C@H](C)CO)C(=O)c2cc(NC(=O)Nc3ccc(C(F)(F)F)cc3)ccc2O[C@@H]1CN(C)Cc1ccc2c(c1)OCO2	0.0573	-10.4	/	0.5
C[C@@H]1CN([C@@H](C)CO)C(=O)Cc2cc(NC(=O)Cc3cn(C)c4ccccc34)ccc2O[C@@H]1CN(C)C(=O)Nc1cccc2ccccc12	-0.0524	13.5	21.8	-1.4
C[C@H]1CN([C@@H](C)CO)C(=O)Cc2cc(NS(=O)(=O)c3cn(C)cn3)ccc2O[C@@H]1CN(C)Cc1ccc(C(=O)Nc2ccccc2N)cc1	-0.579	-10.9	/	-0.7

Part of the list above, as labelled records.
C[C@@H]1CN([C@@H](C)CO)C(=O)Cc2cc(NC(=O)c3ccncc3)ccc2O[C@@H]1CN(C)C
- YB-1 expression: 0.152
- MITF inh: -9.7
- Shh pathway inh: -37.0
- PD-1 reverse act: -0.1
COc1ccc(S(=O)(=O)Nc2ccc3c(c2)C(=O)N([C@@H](C)CO)C[C@H](C)[C@H](CN(C)Cc2ccc(C(=O)O)cc2)O3)cc1
- YB-1 expression: -0.552
- MITF inh: 8.9
- Shh pathway inh: -6.9
- PD-1 reverse act: 1.1
C[C@H]1CN([C@@H](C)CO)C(=O)c2cccc(NS(=O)(=O)c3ccccc3)c2O[C@@H]1CN(C)S(=O)(=O)c1cn(C)cn1
- YB-1 expression: -0.0674
- MITF inh: -2.6
- Shh pathway inh: 20.2
- PD-1 reverse act: 4.4
C[C@@H]1CN([C@@H](C)CO)C(=O)c2cc(NC(=O)Cc3cn(C)c4ccccc34)ccc2O[C@@H]1CN(C)CC1CCCCC1
- YB-1 expression: 0.502
- MITF inh: 8.0
- Shh pathway inh: /
- PD-1 reverse act: /

The listing continues.
SMILES	YB-1 expression	MITF inh	Shh pathway inh	PD-1 reverse act
COC(=O)c1ccccc1NC(=O)Cn1nc(C(F)(F)F)c2c1CCCCC2	/	9.9	/	2.8
CC(C)NC(=O)Nc1ccc2c(c1)C(=O)N([C@H](C)CO)C[C@H](C)[C@@H](CN(C)S(=O)(=O)c1cccs1)O2	-0.166	-8.4	-10.5	0.2
COc1ccc(S(=O)(=O)Nc2ccc3c(c2)C(=O)N([C@H](C)CO)C[C@H](C)[C@@H](CN(C)S(=O)(=O)c2ccc(C)cc2)O3)cc1	-0.118	-5.4	/	0.8
C[C@H]1CN([C@@H](C)CO)C(=O)c2cc(NC(=O)NC3CCCCC3)ccc2O[C@H]1CN(C)C(=O)Nc1ccc(F)cc1	-0.384	-10.1	5.3	0.9
C[C@@H]1O[C@@H](Oc2cc(O)c3c(=O)c(O[C@@H]4O[C@@H](C)[C@H](O)[C@@H](O[C@@H]5OC[C@@H](O)[C@H](O)[C@H]5O)[C@H]4O[C@@H]4O[C@H](CO)[C@@H](O)[C@H](O)[C@H]4O)c(-c4ccc(O)c(O)c4)oc3c2)[C@H](O)[C@H](O)[C@H]1O	0.233	2.1	10.0	0.6
C[C@@H]1CN([C@@H](C)CO)C(=O)c2cc(NS(=O)(=O)c3cn(C)cn3)ccc2O[C@H]1CN(C)Cc1ccc(C(=O)Nc2ccccc2N)cc1	-0.212	-0.2	/	1.0
C[C@H](CO)N1C[C@H](C)[C@H](CN(C)C)Oc2ccc(NS(=O)(=O)c3ccccc3)cc2CC1=O	-0.323	-15.5	-8.3	/
C[C@@H]1CN([C@@H](C)CO)C(=O)c2cccc(NC(=O)Nc3ccc(F)cc3)c2O[C@H]1CN(C)Cc1ccccc1	-0.132	34.0	-8.8	-5.6
Cc1noc(C)c1S(=O)(=O)Nc1ccc2c(c1)CC(=O)N([C@@H](C)CO)C[C@H](C)[C@H](CN(C)Cc1ccccc1)O2	-0.192	0.5	15.7	-0.6
Cc1noc(C)c1NC(=O)N(C)C[C@@H]1OCCCC[C@@H](C)Oc2ccc(NC(=O)C3CCCCC3)cc2C(=O)N([C@H](C)CO)C[C@@H]1C	-0.118	9.1	/	/
COc1cc(/C=C/c2cc(O)cc(O[C@@H]3O[C@H](CO)[C@@H](O)[C@H](O)[C@H]3O)c2)ccc1O[C@@H]1O[C@H](CO)[C@@H](O)[C@H](O)[C@H]1O	-1.2	-12.8	1.0	0.0
CC1=C(C#N)C(C(F)(F)F)(C(F)(F)F)N=C(c2ccncc2)N1	-0.121	35.6	-0.7	-0.2
COc1ccccc1OCC(=O)Nc1c[nH]c(=O)[nH]c1=O	/	0.5	/	-0.2
CCC/C=C/C=C/C1CC(O)C(O)C(O)C1CO (stereo not drawn)	0.0556	-8.3	-11.9	1.1
COc1ccc(CN(C)C[C@@H]2Oc3c(NS(=O)(=O)c4c(C)noc4C)cccc3C(=O)N([C@@H](C)CO)C[C@@H]2C)cc1	-0.217	0.3	-13.5	0.8
C[C@@H]1CN([C@H](C)CO)C(=O)c2cccc(NC(=O)c3nc4ccccc4s3)c2O[C@H]1CN(C)Cc1ccc(C(=O)Nc2ccccc2N)cc1	-0.272	39.6	/	-1.4

These rows are one share of the data; the hit share may differ from the screen's.
